Source: PubChem
GLA inh pH 4.5: alpha-galactosidase A (human) inhibition, pH 4.5; 230,000 tested, under 10 active; P06280; AID 1467; activity change, negative = inhibition, % at 105 µM; purified enzyme, 4-MU-alpha-Gal fluorescence, pH 4.5; inconclusive = small, poorly fitted or top-dose-only inhibition, or a rising curve; inactive = flat fitted curve, though single readings scatter; no compound was filed as active;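 note: 0% = full activity with enzyme and -100% = basal without enzyme; dose as in the result columns while the protocol names 77 µM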
miR-21 FLuc: miR-21 reporter, rising signal; HeLa miR-21 FLuc reporter, luciferase, 48 h; Potency, µM (series often up to 38.3 µM), inactives show at the top dose reporter change, positive = more light; 340,000 tested, under 10 active; AID 2288; active = well fitted rising curve with a large enough effect; inconclusive = small, poorly fitted or top-dose-only effect; inactive = no such curve, though single readings can be large or run the other way;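 note: % of control where 0% means no effect; miR-21 action dims this reporter so a rising signal means less miR-21 action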
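Compounds were titrated across several concentrations (up to approximately 40 uM) and incubated 48 hours with HeLa miR-21-FLuc reporter cells (miR-21 target sequence downstream of FLuc, endogenous miR-21). Readout was firefly luciferase luminescence after lytic detection reagent.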
Rango release inh: inhibitors of RanGTP-induced Rango-importin beta complex dissociation; O95149+P62826; Biochemical FRET Rango-importin beta, RanGTP-induced dissociation; Potency, µM (titrated, usually from 46.1 µM), without a hit: at the highest dose activity change, negative = inhibition; 0.071% of 340,000 active; active means falling FRET ratio curve, often poorly fitted, with flat reads before Ran was added; inconclusive means other falling curves, or compound fluorescence or quenching; inactive means flat or rising ratio curve;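 note: potency is the fitted concentration of half-maximal effect; % of control where 0% means no effect; nearly all actives have a fitted effect of over 45% in size; -100% = wells without RanGTP and RCC1; the record marks most hits as doubtful in a second field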
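Compounds sat 5 min at room temperature with 0.1 uM Rango biosensor plus 0.25 uM importin beta, then FRET pre-read. RanGTP-RCC1 (0.6 uM Ran, 2mM GTP, 0.2 uM RCC1) added for 45 min, and the CFP/YFP post-read measured blocked complex dissociation.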
Rango complex inh: inhibitors of Rango-importin beta complex formation. Q14974. Potency, µM (top dose mostly 92.2 µM), for inactives: at the top dose inhibition of complex formation. Rango CFP/YFP FRET sensor + importin beta, 45 min. 0.031% of 340,000 active; active = rising FRET ratio curve, often small or poorly fitted; inconclusive = mostly compound fluorescence or quenching in the first reads; inactive = flat curves in all reads;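 note: potency is the fitted concentration of half-maximal effect; 0% = DMSO wells and 100% = buffer wells lacking importin beta; nearly all actives have a fitted effect of over 15% in size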
Target sequence (Q14974 whole entry, looked up): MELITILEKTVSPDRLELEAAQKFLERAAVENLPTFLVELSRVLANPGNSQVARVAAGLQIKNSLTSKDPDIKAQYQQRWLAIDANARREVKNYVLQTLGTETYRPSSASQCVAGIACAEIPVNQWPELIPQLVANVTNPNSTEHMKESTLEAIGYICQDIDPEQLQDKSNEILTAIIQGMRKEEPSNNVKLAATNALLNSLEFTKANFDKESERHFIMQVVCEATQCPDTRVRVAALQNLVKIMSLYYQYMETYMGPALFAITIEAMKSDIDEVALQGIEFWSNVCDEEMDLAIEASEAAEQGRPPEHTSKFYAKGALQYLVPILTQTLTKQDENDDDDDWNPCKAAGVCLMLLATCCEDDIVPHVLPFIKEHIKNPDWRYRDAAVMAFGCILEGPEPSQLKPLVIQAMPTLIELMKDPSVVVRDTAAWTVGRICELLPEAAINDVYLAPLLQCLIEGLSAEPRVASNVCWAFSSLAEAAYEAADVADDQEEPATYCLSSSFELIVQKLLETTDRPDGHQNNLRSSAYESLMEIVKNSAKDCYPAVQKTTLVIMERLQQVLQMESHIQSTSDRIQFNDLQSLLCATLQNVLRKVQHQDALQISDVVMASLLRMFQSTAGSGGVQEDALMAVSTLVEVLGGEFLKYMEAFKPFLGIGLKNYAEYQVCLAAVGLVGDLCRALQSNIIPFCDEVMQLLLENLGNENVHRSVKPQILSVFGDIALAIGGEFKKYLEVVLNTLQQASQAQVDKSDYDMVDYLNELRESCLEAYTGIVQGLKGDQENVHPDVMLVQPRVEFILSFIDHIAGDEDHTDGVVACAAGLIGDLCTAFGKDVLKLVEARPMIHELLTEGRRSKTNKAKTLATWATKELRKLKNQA
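FRET biosensor Rango (snurportin 1 IBB between N-terminal EYFP and C-terminal Cerulean), 50 nM in PBS/1 mM DTT/0.02% Tween-20/0.1% BSA, preincubated 5 min RT with compound; 0.125 microM importin beta added, 45 min RT, CFP/YFP FRET ratio read.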
* marks the source's active call; other numbers are inactive results; ? = inconclusive; nt = not tested or not shown; & = joins results of further samples.

SMILES	GLA inh pH 4.5	miR-21 FLuc	Rango release inh	Rango complex inh
CC1CCCCN1Cc1c(O)ccc2c(=O)c(-c3ccc(Cl)cc3Cl)coc12 (centres undefined)	nt	-4%	-11%	3.5%
C[C@H](O)Cc1cn(-c2cc3cc(C#Cc4ccsc4)ccc3oc2=O)nn1	nt	nt	13%	-2.6%
CSc1ncc(C(=O)Nc2cc(C)ccc2C)c(C)n1	nt	-4%	-12%	1.3%
C=CCSC1=C(C#N)C(c2ccccc2OCC)C(C#N)C(=O)N1 (centres undefined)	-2	-4%	-5%	-1.3%
CCCc1nc(N)sc1C(=O)OCC	6	-7%	3%	-0.8%
CCN(CC)c1ccc(S(=O)(=O)N2CCOCC2)cc1NC(=O)CSc1nnc(N)s1	nt	nt	-8%	4.2%
CCOC(=O)c1cc(-c2ccccc2)sc1NC(=O)C(C)(C)C	5	1%	-5%	-1.9%
Nc1c(C(=O)c2ccc(F)cc2)oc2ccccc12	1	-39%	0%	?
Cc1nnc(SCC(=O)N(C)CC(=O)Nc2ccc(F)cc2)n1Cc1ccccc1	2	0%	0%	-6.9%
Cc1cccc(C(=O)NC(=S)Nc2ccc(S(=O)(=O)N3CCN(C)CC3)cc2)c1	1	-13%	-8%	5.0%
O=c1oc2ccccc2cc1-c1csc(Nc2nc3ccc(F)cc3s2)n1	-5	-13%	nt	nt
COc1cccc(N2C(=O)CC(N3CCN(S(=O)(=O)c4ccccc4)CC3)C2=O)c1 (centres undefined)	0	-1%	35%	-3.7%
COc1c(Cl)cc(Cl)cc1CNCCNCCO	0	-11%	-18%	-2.4%
S=c1[nH]nc(C23CC4CC(CC(C4)C2)C3)n1Cc1ccco1	7	5%	-13%	1.1%
CCC(C(=O)NC(C)CCc1ccco1)n1nc(C)n2c(cc3occc32)c1=O (centres undefined)	0	0%	-3%	-0.7%
O=C(Nc1ccc(-c2csc(Nc3ccccc3)n2)cc1)c1cc([N+](=O)[O-])cc(C(F)(F)F)c1	-4	-10%	-18%	-0.2%
COc1ccc2nc(Nc3nc(CSc4ccc(C)cc4)cc(=O)[nH]3)nc(C)c2c1	nt	-2%	5%	2.3%
CCN(CC)CCN1C(=O)C2C(C(=O)Nc3cccc(C)c3)C3C=CC2(O3)C1C(=O)NC1CCCC(C)C1C (centres undefined)	nt	0%	1%	?
O=S(=O)(NCCCN1CCN(c2ccccc2F)CC1)c1cccc2cccnc12	7	2%	-7%	1.0%
Cc1ccc(C)c(N(CC(=O)NC2CCCC2)C(=O)c2cc3cc4cc(C)ccc4nc3s2)c1	-6	-5%	-15%	1.9%
O=C(COC(=O)Cc1ccccc1F)Nc1cccc(F)c1	6	0%	0%	-1.8%
CCCNC(=O)Cn1c(-c2ccc(F)cc2)cc(C(=O)OCC)c1C	-1	-2%	16%	0.3%
CCC(=O)Nc1cc(-c2cc3ccccc3oc2=O)ccc1OC	5	-56%	-5%	3.5%
CC1(C(=O)NCC2CCCO2)Oc2cccnc2NC1=O (centres undefined)	4	0%	-7%	-4.1%
Cc1cc(=O)oc2cc(OC(=O)C3CCN(C(=O)c4ccc(F)cc4)CC3)ccc12	nt	nt	0%	-0.8%

Other structures.
SMILES	GLA inh pH 4.5	miR-21 FLuc	Rango release inh	Rango complex inh
COC(=O)c1c(NC(=O)CCCC(=O)O)sc2c1CCC2	-7	-3%	1%	-0.3%
CC1(C)Cc2c(sc(NC(=O)C(=O)NCC3CCCO3)c2C(N)=O)CO1 (centres undefined)	nt	-1%	4%	3.4%
O=C(NCCC1=CCCCC1)Nc1ccc2nsnc2c1	-5	-4%	-13%	-4.4%
Cn1nnnc1Sc1ncnc2scc(-c3cccc(Br)c3)c12	nt	nt	5%	-1.2%
Oc1c(C=C2N=c3ccccc3=N2)sc(=S)n1-c1ccc2ccccc2c1	-2	-8%	-11%	1.5%
Cc1nonc1OCCN1CCN(c2ccccc2[N+](=O)[O-])CC1	-5	-1%	-3%	-1.9%
CC(C)(C)c1cc(CSC(=S)NC2CCS(=O)(=O)C2)c(Br)c(C(C)(C)C)c1 (centres undefined)	0	3%	-8%	-4.2%
CCOc1ccc(CC(=N)C2=C(O)CC(C)(C)CC2=O)cc1OCC	-12	-9%	-6%	-0.5%
Cc1cc(NC(=O)CSc2nnc(COc3cccc(C)c3C)n2Cc2ccco2)no1	11	-8%	3%	-1.3%
O=C(CSc1nnc2scc(-c3ccccc3)n12)c1ccc2c(c1)OCCO2	1	-2%	0%	-3.1%
Oc1c(CNc2ccccc2)cc(COCc2ccccc2)c2cccnc12	nt	nt	?	?
COc1ccc(Nc2ncnc3sc(C)cc23)c(OC)c1	nt	-51%	12%	-1.2%
CCOc1ccc(/C=N/NC(=O)c2cc3ccccc3cc2OC)cc1	nt	-6%	-5%	4.3%
CCn1cc(C(=O)NCCCN2CCCC(C)C2)c(=O)c2cc(S(=O)(=O)N(C)C3CCCCC3)ccc21 (centres undefined)	nt	-7%&-5%	-16%	1.4%
COC(=O)C1Cc2c([nH]c3ccccc23)CN1C(C)=O (centres undefined)	nt	-3%	-18%	?
CCCS(=O)(=O)N1CCCC(C(=O)NCCN2CCOCC2)C1 (centres undefined)	2	-4%	1%	4.6%
O=C(Nc1ccccc1)C1COc2ccccc2O1 (centres undefined)	nt	-36%	-15%	-2.9%
Cn1c(=O)n(C)c2cc(N3CCCC3)c(NC(=O)c3cccc(F)c3)cc21	nt	-9%	12%	-3.8%
COc1ccc(OC)c(N(C)S(=O)(=O)c2ccc3c(c2)N(C(C)=O)CCO3)c1	nt	1%	-2%	0.7%
O=C(O)CCC(=O)/C=C/c1ccccc1	1	-2%	-2%	-5.3%
Cc1ccc(NC(=O)CSc2nc(C)c(Cc3ccccc3)c(=O)[nH]2)cc1C	-9	6%&4%	-8%	2.0%
Cc1ccc(OCC(=O)Nc2ccc3c(c2)nc2n3CCOC2)cc1	-1	-14%	-8%	5.7%
Cc1cccc(C)c1NC(=O)CCCN1C(=O)C(c2ccccc2)Oc2cccnc21 (centres undefined)	nt	-2%	5%	-1.4%
Cc1cccc(NS(=O)(=O)c2ccc(C)c(C(=O)NCC(c3cccs3)N(C)C)c2)c1 (centres undefined)	nt	nt	2%	?
COc1ccc(CC(=O)NC(CC(=O)O)c2ccc(OC)cc2)cc1 (centres undefined)	-14	-2%	2%	?

Entries of single compounds, quoted from the list:
`Cc1nonc1OCCN1CCN(c2ccccc2[N+](=O)[O-])CC1` is listed with GLA inh pH 4.5 = -5; miR-21 FLuc = -1%; Rango release inh = -3%; Rango complex inh = -1.9%
`Oc1c(C=C2N=c3ccccc3=N2)sc(=S)n1-c1ccc2ccccc2c1` is listed with GLA inh pH 4.5 = -2; miR-21 FLuc = -8%; Rango release inh = -11%; Rango complex inh = 1.5%

Next section:
SMILES	GLA inh pH 4.5	miR-21 FLuc	Rango release inh	Rango complex inh
CN(C)c1ncc(S(=O)(=O)c2ccccc2)c(-c2ccc(Cl)cc2Cl)n1	-2	-8%	1%	0.0%
COC(=O)C12OCC34C(CC5C(C)=C(O)C(=O)CC5(C)C3C(O)C1O)OC(=O)C(OC(=O)C=C(C)C)C24 (centres undefined)	nt	nt	-2%	-3.1%
CCOC(=O)C1CCCN(C(=O)/C=C/c2ccc(Cl)cc2)C1 (centres undefined)	-4	-10%	10%	2.3%
COc1ccc(Cn2c(O)c(C=Nc3ccc(O)cc3)c3ccccc3c2=O)cc1	-10	-7%	?	?
O=C(NCCn1c(-c2ccncc2)nc2ccccc21)[C@H]1CCCN1c1nc(CN2CCCCC2)cs1	nt	-1%	1%	-0.7%
Cc1csc(SCC(=O)Nc2ccccc2[N+](=O)[O-])n1	-3	-28%	-12%	0.1%
Cc1nn(C)c(C)c1NC(=O)COc1ccc(Cl)cc1	nt	nt	-7%	-0.4%
Clc1cccc(Cl)c1Cn1ccc(C2CC2)n1	1	-67%	6%	-4.7%
COc1ccc(CCN2CC(C(=O)Nc3cc(F)ccc3F)CC2=O)cc1OC (centres undefined)	nt	nt	-11%	3.2%
O=C(Nc1cccc(Cl)c1)c1ccc(S(=O)(=O)NCC2CCCO2)cc1 (centres undefined)	nt	22%	?	0.0%
O=c1c2cc(Cl)cc(Cl)c2nc2n1CCC2	1	2%	9%	-2.7%
Cc1cc(C)cc(OCC(=O)Nc2ccc3c4c(cccc24)CC3)c1	12	0%	2%	2.7%
Cc1[nH]c(=O)[nH]c(=O)c1S(=O)(=O)NCCOC12CC3CC(CC(C3)C1)C2	0	-5%	-1%	4.5%
CCc1n[nH]c(=S)n1/N=C/c1c(C)nn(-c2ccccc2)c1Cl	-7	-19%	0%	0.4%
O=C(/C=C/c1ccc(Br)o1)NC(c1ccccc1)c1ccccc1	1	4%	-8%	-0.5%
O=C(COC(=O)c1cn(-c2ccccc2)nc1-c1ccccc1)Nc1ncc(Cl)cc1Cl	12	0%	-4%	?
O=C(c1ccc(OCCN2CCCCC2)cc1)c1c(-c2ccc(O)cc2)sc2cc(O)ccc12	-8&-7&-10&-8	nt	1%&7%	0.4%&-1.5%
Nc1nn(-c2cccc(F)n2)cc1-c1ccccc1	10	-25%	-3%	-0.2%
CCCCNC(=O)COC(=O)c1ccc(Cl)c(S(N)(=O)=O)c1	5	1%	2%	2.1%
COc1ccc(N2CCN(C(=S)Nc3ccc(F)cc3)CC2)cc1	nt	1%	-24%	0.5%
CC(=O)Nc1ccc2c(c1)ncn2-c1ccc(C)cc1	6	-55%	12%	-2.2%
CCc1ccc2[nH]c3nc(SCC(=O)NCC4CCCO4)nnc3c2c1 (centres undefined)	nt	-3%	-13%	2.3%
CCOC(=O)CC1COCCN1C(=O)c1cc(COc2ccc(F)cc2Cl)on1 (centres undefined)	nt	-18%	6%	-0.5%
CCN(CC)C(=O)CSc1nc2sc(C)c(C)c2c(=O)[nH]1	2	-2%	-12%	?
COC(=O)CCC(=O)N1CCCC(CO)(Cc2ccccc2F)C1 (centres undefined)	nt	0%	-10%	-4.4%

(cont.)
SMILES	GLA inh pH 4.5	miR-21 FLuc	Rango release inh	Rango complex inh
Cc1nnc(SCC(=O)N2CCC(Cc3ccccc3)CC2)n(N)c1=O	-4	1%	0%	-2.5%
CCc1nc(Cl)c(C#N)c2c1CSC(C)(C)C2	6	-12%	-11%	0.7%
COc1ccc(CC(C)N2CCN(c3cccc(C(F)(F)F)c3)CC2)cc1OC (centres undefined)	-3	8%	-23%	1.2%
O=c1c(-c2ccccc2)coc2cc(O)ccc12	nt	-63%	3%	1.5%
COc1ccc(N(C(=O)CNC(=O)c2ccco2)C(C(=O)NC2CCCC2)c2cccnc2)cc1 (centres undefined)	nt	0%	-1%	0.6%
CCC1CCCCN1CCCNC(=O)c1ccc2c(c1)N(Cc1ccc(F)cc1)C(=O)c1ccccc1S2=O (centres undefined)	nt	12%	?	0.4%
CC1(C)Oc2ccc3ccc(=O)oc3c2/C(=C/NCCN/C=C2\C(=O)C(C)(C)Oc3ccc4ccc(=O)oc4c32)C1=O	-6	2%	nt	nt
Cc1cccc(Cl)c1OCCCCn1ccnc1	-23	-2%	2%	2.7%
S=C(NCCCNC(=S)Nc1ccccc1)Nc1ccccc1	2	-2%	3%	0.1%
OC(COc1ccc(F)cc1Cl)CN1CCc2ccccc2C1 (centres undefined)	nt	-8%	0%	-4.9%
Cc1cc(=O)cc(C)n1-c1ccccc1N1CCOCC1	-9	-2%	12%	4.3%
C=CCNC(=O)C1CCN(S(C)(=O)=O)CC1	6	1%	8%	1.1%
Cc1cccc(NC(=O)c2ccc(S(=O)(=O)N(C)C)cc2)n1	0	-23%	9%	0.6%
O=S(=O)(NCc1csc(-c2cccnc2)n1)c1ccc(Cl)s1	-2	0%	-4%	1.1%
COC(=O)c1ccc(CSc2nc(-c3ccco3)cc(C(F)(F)F)n2)o1	-8	-2%	-6%	-0.2%
CSCCC(NC(=O)c1ccccc1)C(=O)NCC(C)(C)N1CCOCC1 (centres undefined)	nt	nt	?	0.7%
COc1ccc(N2C(=O)CC(NNC(=O)c3ccco3)C2=O)cc1 (centres undefined)	-1	-4%	-6%	?
C=CCC(C(=O)NC(C)c1ccccc1)C(=O)NC(C)c1ccccc1 (centres undefined)	nt	3%	0%	1.2%

This is a subset. The share of hits here may be higher or lower than overall.
